# D1 PAM = potentiators of human D1 dopamine receptor; hit rate 0.036% among 360,000; HEK293 TREx D1 cells, calcium flux, dopamine EC20 potentiation; P21728; potentiation, % at 10 µM; in the data active = potentiation above about 30%; also: 0% is about no effect
# Target sequence (P21728 whole entry, looked up): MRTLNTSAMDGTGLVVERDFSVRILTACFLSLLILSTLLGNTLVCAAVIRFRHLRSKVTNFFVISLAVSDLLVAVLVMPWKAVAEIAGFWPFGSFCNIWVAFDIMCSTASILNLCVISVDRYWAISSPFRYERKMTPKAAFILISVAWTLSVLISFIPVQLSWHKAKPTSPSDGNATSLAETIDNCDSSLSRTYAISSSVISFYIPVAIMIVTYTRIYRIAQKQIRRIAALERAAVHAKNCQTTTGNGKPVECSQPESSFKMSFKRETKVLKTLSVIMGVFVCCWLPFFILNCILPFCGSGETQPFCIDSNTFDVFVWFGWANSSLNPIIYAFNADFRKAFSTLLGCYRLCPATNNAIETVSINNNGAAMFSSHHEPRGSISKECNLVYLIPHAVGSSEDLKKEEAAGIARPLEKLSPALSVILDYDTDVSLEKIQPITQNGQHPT
# D1 antagonist = human D1 dopamine receptor antagonism. hit rate 3.2% among 360,000. P21728. activity change, negative = inhibition, % at 10 µM. HEK293 TREx D1 cells, calcium flux, dopamine EC80; stronger effect = lower value. AID 504652; in the data active = activity change below about -30%; also: % is scaled to controls: 0 for no effect and ±100 for the full control effect
#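 Inducible Hek293 Trex D1 cells (tetracycline, overnight, 30 C). Calcium dye 30–90 min RT. Antagonist mode: EC80 dopamine added after 180 s compound read.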
# TRHR ag = activates the human TRH receptor | AID 493084 | TRHR cells, calcium flux fluo-8, FDSS agonist mode | P34981 | activation, % at 2 µM | hit rate 0.18% among 360,000; also: 0% is about no effect
# Target sequence (P34981 whole entry, looked up): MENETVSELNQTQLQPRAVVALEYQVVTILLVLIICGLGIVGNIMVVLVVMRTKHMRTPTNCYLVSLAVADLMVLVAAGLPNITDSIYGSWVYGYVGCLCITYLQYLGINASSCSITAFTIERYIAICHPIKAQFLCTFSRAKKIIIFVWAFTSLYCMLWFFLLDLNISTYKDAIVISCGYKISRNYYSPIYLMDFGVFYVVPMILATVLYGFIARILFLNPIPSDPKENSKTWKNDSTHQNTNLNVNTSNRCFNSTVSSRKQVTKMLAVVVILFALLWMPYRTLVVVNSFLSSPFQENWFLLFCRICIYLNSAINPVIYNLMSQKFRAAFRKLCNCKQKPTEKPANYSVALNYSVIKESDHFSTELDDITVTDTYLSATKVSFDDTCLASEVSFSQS
#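 TRHR-expressing cells, plated overnight in medium with 10% serum, were loaded with fluo-8 calcium dye at room temperature. After a 10 s baseline, library compound was pin-added and calcium release was recorded kinetically (ex 480/em 530) as agonist response.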
# TRHR enhancer = allosterically enhances the human TRH receptor. enhancement, % at 2 µM. TRHR cells, fluo-8 calcium fluorescence, EC20 TRH enhancement. hit rate 0.66% among 360,000. P34981; in the data active = enhancement above about 30%; also: 0% is about no effect
#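 Enhancer read-out: after compound pinning and an initial kinetic agonist-mode read, an EC20 of TRH (10 nM final) was injected and fluo-8 calcium signal (Ex 480/Em 530) followed at 1 s/cycle for 100 cycles in TRHR-expressing cells.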
# D1 agonist = agonists of human D1 dopamine receptor. P21728. HEK293 T-REx D1 cells, calcium flux, agonist mode. activation, % at 2 µM. hit rate 1% among 360,000. AID 504660; also: 0% is about no effect
#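 Tetracycline-induced HEK293 TREx D1 cells, force-coupled to calcium signalling, were dye-loaded with a no-wash calcium kit. Compound was pin-added after a 10 s baseline. Fluorescence was read kinetically at 1 cycle/s for 180 s, with calcium rises flagged as agonism.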
# D2 antag = antagonizes the human D2 dopamine receptor. HEK293 TREx D2 cells, calcium flux, dopamine EC80. inhibition, % at 10 µM. hit rate 2% among 340,000. P14416; in the data active = inhibition above about 30%; also: 0% is about no effect
#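 Dopamine at EC80 is the agonist stimulus; test compounds precede it by 180 s. Calcium flux read kinetically in a force-coupled, inducible HEK293 T-REx D2 cell line.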
# D2 agonist = D2 dopamine receptor (human) agonism; P14416; HEK293 T-REx D2 cells, calcium flux agonist mode; activation, % at 2 µM; hit rate 0.53% among 340,000; AID 485358;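 active = activation over 3 SD above normal in the single-dose calcium agonist read, cut at about 30% in these data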; also: 0% is about no effect
#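 Tetracycline-induced HEK293 T-REx cells with force-coupled D2 receptor, plated overnight at 30 C, loaded with no-wash calcium dye. After a 10 s baseline, compound was pin-added and calcium flux read kinetically for 180 s; calcium rises flagged agonists.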
# D2 potentiator = positive allosteric modulators of human D2 dopamine receptor. P14416. HEK293 T-REx D2, calcium flux, EC20 dopamine potentiation. potentiation, % at 10 µM. hit rate 0.34% among 340,000;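 active = potentiation over 3 SD above the plate norm, cut at about 30% in these data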; also: 0% is about no effect
#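 Potentiation of an EC20 dopamine calcium response is measured in a force-coupled, tetracycline-inducible Hek293 Trex D2 line. Compound-only kinetic reads over 180 s flag agonists before dopamine addition.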
# Starred values were filed as active, the others as inactive; / = not tested or not shown; & = joins results of further samples. Rule as the data show it, unless noted: active = activation above about 30%; inactive = the rest. The list is partial; rates above refer to the full screens.
compound	D1 PAM	D1 antagonist	TRHR ag	TRHR enhancer	D1 agonist	D2 antag	D2 agonist	D2 potentiator
CCOC(=O)c1cc2ccc3ccccc3c2oc1=O	-1	27	-1.1	1	2	8	-0.1	-3
Cn1c(=O)c2sccc2n2c(CCCC(=O)Nc3ccc(Cl)cc3)nnc12	-5	-5	-0.3	3	0	/	0.5	12
COCCn1c(=NC(=O)CSCC(=O)NC2CCCCC2)sc2cc(OC)ccc21	-4	0	-0.8	1	0	-3	-0.9	2
CC(=O)c1ccc(NC(=O)c2cc3c([nH]c2=O)CC(c2ccccc2)CC3=O)cc1 (stereo not drawn)	-1	2	0.6	-5	3	/	1.1	5
O=C(CCS(=O)(=O)Cc1cccc(Cl)c1)NCCc1ccccc1	1	-2	-1.0	-3	1	0	0.2	2
O=C(/C=C/c1cn(-c2ccccc2)nc1-c1cccs1)NCCN1CCOCC1	-1	4	-1.1	-2	2	-11	0.0	-2
Cc1ccc(C2=NNC(C(O)C(O)C(O)C(O)CO)S2)cc1 (stereo not drawn)	0	-2	1.0	4	2	-1	-0.2	25
CN(CC(=O)Nc1ccc(Cl)cc1F)S(=O)(=O)c1ccc2c(c1)n(C)c(=O)c(=O)n2C	-4	-24	-2.0	8	2	/	-1.1	5

# More entries follow:
compound	D1 PAM	D1 antagonist	TRHR ag	TRHR enhancer	D1 agonist	D2 antag	D2 agonist	D2 potentiator
N#Cc1ccc(OCC(=O)Nc2cccc(S(=O)(=O)NC3=NCCCCC3)c2)cc1	-6	5	0.1	-8	2	3	0.2	3
CCCCOC(=O)/C=C/c1ccc(OC(=O)OC)c(OC(=O)OC)c1	-8	-6	0.7	-2	2	74*	0.3	-4
O=C(O)CCn1c(SCc2cc(=O)n3ccccc3n2)nc2ccsc2c1=O	0	-15	0.8	-4	-2	11	-1.2	-2
CCOC(=O)C1CCCN(c2nc3ccccc3nc2C(C#N)C(=O)NCc2ccccc2)C1 (stereo not drawn)	-9	-3	5.0	1	33*	18	3.4	-3
CCN(CC)S(=O)(=O)c1cccc(C(=O)NNC(=O)c2ccc3[nH]c(=O)c(=O)[nH]c3c2)c1	-5	-18	1.1	0	5	5	-0.1	-5
CCNc1nc(Cl)nc(-c2cn(-c3ccccc3)c3ccccc23)n1	-2	20	1.5	-6	2	14	-0.6	2
COc1ccc(OC)c(NC(=O)c2oc(=O)c3ccccc3c2-c2ccccc2)c1	1	5	0.7	-6	4	/	0.5	-3
Cc1cc(C(=O)Nc2sccc2C#N)c2ccccc2n1	-3	-11	0.7	-3	4	1	6.5	-6

# The list goes on.
compound	D1 PAM	D1 antagonist	TRHR ag	TRHR enhancer	D1 agonist	D2 antag	D2 agonist	D2 potentiator
COC(=O)C1=NN(c2cccc(C)c2)C2C(=O)N(c3ccccc3OC)C(=O)C12 (stereo not drawn)	-2	7	1.0	0	4	-4	1.4	-2
Cn1cnnc1SCC(=O)Nc1cc(S(=O)(=O)N2CCCCCC2)ccc1Cl	-2	-1	0.0	-3	3	15	-0.3	-5
CCOC(=O)C1CCN(C(=O)c2ccc3c(c2)NC(=O)/C(=C\c2ccc(C)cc2)S3)CC1	6	-16	2.5	-4	8	-16	1.9	7
Cc1nn(C)cc1CN(C)C(=O)c1cc(-c2ccccc2)nc2ccc(Br)cc12	-1&-4	6&1	-0.1&-0.2	4&0	1&2	-5	-0.5&0.2	2&-9
CSCCC(Nc1ncnc2ccc(Br)cc12)C(=O)O (stereo not drawn)	0	2	0.3	1	2	1	-1.5	-4
O=C(NC1CC(=O)N(c2ccc(Cl)cc2)C1)N1CCN(C(=O)c2ccco2)CC1 (stereo not drawn)	-10	13	0.3	-1	1	-12	0.3	2
O=C(COc1ccc2cc(Br)ccc2c1Br)N1CCOCC1	-6	-14	0.2	-10	6	3	-0.3	11
CCCCOC(=O)CSc1nc(N)c(C#N)c(-c2ccc(OC)cc2)c1C#N	-4	-11	0.8	1	8	8	0.8	10

# (continued)
compound	D1 PAM	D1 antagonist	TRHR ag	TRHR enhancer	D1 agonist	D2 antag	D2 agonist	D2 potentiator
Cc1c(C(=O)NCc2ccccc2F)oc2ccccc12	-8	-20	1.4	2	1	9	0.6	8
COCCCn1c(=S)[nH]c2ccc(N3CCOCC3)cc2c1=O	-1	4	0.0	1	1	-5	-0.8	-1
Cc1cccc(Cn2c(=O)n(CCC(=O)NCc3ccc4c(c3)OCO4)c(=O)c3sccc32)c1	4	-7	0.4	5	2	/	-0.5	-12
Cc1cc(NC(=O)c2ccc3nc(-c4ccccc4)c(-c4ccccc4)nc3c2)no1	3	22	0.3	-2	3	4	0.4	14
O=c1c2oc3ccccc3c2[nH]c(=S)n1-c1ccc(F)cc1	-3	10	0.7	-1	5	-12	0.7	3
COc1ccc(/C=N/NC(=O)c2ccc(NS(=O)(=O)c3cccs3)cc2)cc1	-3	4	0.0	-6	1	-6	-0.2	6
CN(c1ccccc1)S(=O)(=O)c1ccc(C(=O)OCC(=O)NC(N)=O)cc1	-4	4	-0.3	13	0	3	0.2	19
Cc1sc2nc(CN3CCCC3)nc(N3CCN(C(=O)c4ccco4)CC3)c2c1C	6	25	1.5	7	1	3	1.2	3

# Going on with the list.
compound	D1 PAM	D1 antagonist	TRHR ag	TRHR enhancer	D1 agonist	D2 antag	D2 agonist	D2 potentiator
O=C(C1=C(O)C(=O)N(Cc2ccco2)C1c1cccnc1)c1cc2ccccc2o1 (stereo not drawn)	-4	-7	-1.1	10	2	6	0.7	11
CCOCCn1c(=NC(=O)CSCC(=O)N2CCOCC2)sc2cc(OC)ccc21	-4	2	0.0	1	1	2	-1.7	4
CCOc1ccc(NC(=O)CSc2ccc3ccccc3n2)cc1	1	-1	-0.9	0	0	/	/	-8
CCc1ccccc1NC(=O)COc1ccc2oc(-c3ccc(OC)cc3)cc(=O)c2c1	1	-2	-0.1	3	4	-13	-0.2	4
COc1ccc(/C=C/C(=O)NC(=S)N2CCCC(C(N)=O)C2)cc1 (stereo not drawn)	0	-13	-0.7	-7	0	8	0.2	-6
Cc1ccccc1-c1noc(-c2cc3ccccc3oc2=O)n1	-3	-3	-0.4	-1	2	/	0.0	-4
CC(=O)c1ccc(NC(=O)c2nc3ccccc3n(C)c2=O)cc1	0	2	0.0	7	1	/	-0.2	8
Cc1ccc(-c2nn3c(C)nnc3s2)cc1NCc1c(F)cccc1Cl	0	3	-0.7	-5	1	2	-0.4	0

# Next records follow:
compound	D1 PAM	D1 antagonist	TRHR ag	TRHR enhancer	D1 agonist	D2 antag	D2 agonist	D2 potentiator
C/C(=N\NC(=O)c1ccc(NS(=O)(=O)c2cccs2)cc1)c1ccc2ccccc2c1	-4	-2	-0.6	2	2	7	-1.5	-3
O=C1CC(c2ccccc2)Cc2[nH]c(=O)c(C(=O)Nc3ccc(OC(F)(F)F)cc3)cc21 (stereo not drawn)	0	0	0.8	10	0	/	0.6	-5
COc1ccccc1N1C(=O)C2C(C(=O)c3ccccc3)=NN(c3ccccc3OC)C2C1=O (stereo not drawn)	0	8	27	-1	78*	-4	15	-4
O=C(NCc1ccco1)c1ccc(Cn2c(=O)c3ccccc3n(Cc3cccc(Cl)c3)c2=O)cc1	4	2	1.8	4	10	-18	0.0	5
Cc1ccc(CNC(=O)C2CCN(C(=O)c3ccc(-n4ccc5ccccc54)s3)CC2)cc1	-2	1	0.4	3	3	/	0.0	1
O=C(CSc1ncnc2sc3c(c12)CCCC3)N1CCC(c2noc3ccc(F)cc23)CC1	4	12	-1.8	2	-2	15	-1.4	-5
Cc1cc(O)c(NC(=O)c2ccc(Br)o2)cc1C	-5	-13	0.6	-6	1	9	-0.6	7
COc1cccc(-c2ccc3c(N)c(C(=O)Nc4ccc(C)c(F)c4)sc3n2)c1	-2	-14	-0.9	1	15	/	0.1	1

# Remaining list, next part
compound	D1 PAM	D1 antagonist	TRHR ag	TRHR enhancer	D1 agonist	D2 antag	D2 agonist	D2 potentiator
C=CCn1c(COc2ccc(Cl)cc2)nnc1SCC(=O)Nc1ccc(S(N)(=O)=O)cc1	0	2	0.7	4	8	1	59*	-17
Cc1csc2nc(COC(=O)c3ccccc3NC(=O)c3ccccc3Cl)cc(=O)n12	1	6	-0.9	-3	3	/	0.3	-3
Fc1ccccc1Cn1nnc2c(NCc3ccccn3)ncnc21	-1	-3	-1.3	0	6	3	0.2	-1
CCOC(=O)N1CCN(C(=O)c2ccc3c(c2)NC(=O)/C(=C\c2ccc(OC)c(OC)c2)S3)CC1	-7	9	-1.2	8	1	5	-0.5	-7
CCc1nc(SCC(=O)Nc2nc3c(s2)CCCC3)c2ccccc2n1	-1	4	-0.2	6	6	-6	-0.5	-7
O=C(Nc1cccc(-c2nc3ccccc3[nH]2)c1)c1ccco1	-4	-8	-0.1	-1	1	25	-0.1	4
CCOc1ccccc1-c1n[nH]c(=S)o1	-1	3	0.0	-2	1	2	0.5	3
Cc1noc(C)c1CSc1ccccc1C(=O)N(C)CC(=O)Nc1cccc(F)c1	-7	-8	-0.3	-4	0	13	-1.6	-4

# The list goes on.
compound	D1 PAM	D1 antagonist	TRHR ag	TRHR enhancer	D1 agonist	D2 antag	D2 agonist	D2 potentiator
CC(=O)c1cccc(NC(=O)CCc2nnc3ccc(NCc4ccc5c(c4)OCO5)nn23)c1	-2	-7	0.5	-1	0	-9	-0.7	10
O=C(C1CCCN(CCCc2ccccc2)C1)N1CCCCCC1 (stereo not drawn)	-2	11	0.6	2	4	-8	0.1	-15
CCCc1nc(-c2cc3cc(C)ccc3[nH]c2=O)no1	5	12	-0.1	3	1	-10	0.0	1
O=C(Nc1ccc2oc(=O)ccc2c1)c1ccc(-c2cccc(Cl)c2)o1	-9	-19	1.6	2	5	-10	0.9	0
C=CCn1c(CNC(=O)c2ccccc2F)nnc1SCC(=O)N1CCOCC1	-4	-2	-0.1	8	3	4	0.0	0
Cc1ccc(C2C(C(=O)c3cc4ccccc4o3)=C(O)C(=O)N2CCN2CCOCC2)cc1 (stereo not drawn)	-2	-5	-0.1	-1	0	-18	0.6	-4
COc1ccc(Cl)cc1NC(=O)c1sc2nc(-c3ccc(OC)c(OC)c3)ccc2c1N	1	-5	0.1	3	0	/	0.2	-5
O=S(=O)(Nc1ccc2c(c1)OCCO2)c1ccc(F)cc1	-3	4	0.9	-6	5	1	-0.6	-5

# Next results.
compound	D1 PAM	D1 antagonist	TRHR ag	TRHR enhancer	D1 agonist	D2 antag	D2 agonist	D2 potentiator
O=C(NCc1ccco1)C1CC(=O)N(c2ccc(Cl)cc2)C1 (stereo not drawn)	-3	-8	0.0	6	1	6	0.0	-3
CCCn1c(=S)[nH]c2sc3c(c2c1=O)CCCC3	-7	18	-0.2	-8	0	6	-0.8	-12
Cc1cccc(OCCNC(=O)CSc2ccc(C(F)(F)F)cc2[N+](=O)[O-])c1	-10	-5	0.7	0	3	4	0.5	-3
CN(C)CCN(C(=O)CN1C(=O)c2ccccc2C1=O)c1nc2cc3c(cc2s1)OCO3	-1	-7	0.8	2	20	7	0.0	-11
CCC(=O)Oc1cc(C(C)(C)C)cc2cc(-c3nc(-c4ccc(OC)cc4OC)no3)c(=O)oc12	-5	-1	-0.4	4	-1	/	-0.3	1
O=C1Nc2cc(C(=O)N3CCOCC3)ccc2S/C1=C\c1ccccc1	2	10	-0.9	1	11	47*	0.8	13
Cc1cccc(NC(=O)c2cc3c([nH]c2=O)CC(c2ccccc2)CC3=O)c1 (stereo not drawn)	0	-6	3.6	2	2	/	3.1	0

# Only D1 PAM (3 entries from above):
structure,D1 PAM
O=C(NCc1ccco1)C1CC(=O)N(c2ccc(Cl)cc2)C1 (stereo not drawn),-3
O=C1Nc2cc(C(=O)N3CCOCC3)ccc2S/C1=C\c1ccccc1,2
Cc1cccc(OCCNC(=O)CSc2ccc(C(F)(F)F)cc2[N+](=O)[O-])c1,-10
